Bioassay records: PubChem BioAssay, Broad Institute
Env fusion inh: HIV envelope-mediated fusion inhibition; HeLa-JRFL Env/CEM21 cell fusion, luciferase; inhibition, % at 12.3 µM; 360,000 compounds, 1.1% hits;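 active = mean replicate inhibition score of at least 50 and every replicate individually at or above 50; inconclusive = only one of the two criteria met; inactive = mean below 50 and not all replicates reaching 50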;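 also: 0% = plate neutral controls and 100% = maraviroc near 300 nM; one replicate is shown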
UUG fidelity: alters start codon recognition fidelity in yeast. S. cerevisiae UUG-firefly luciferase reporter, luminescence/redox ratio. activity score, % at 18.7 µM. 350,000 compounds, 0.13% hits;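 active = replicate mean at a twofold rise or more, about +100% in these data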;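 also: firefly luciferase made from a UUG start codon reports start codon fidelity; reporter light over untreated wells divided by growth signal over untreated wells; some hits fall short of that in this replicate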
Starred values were filed as active, the others as inactive; ? = inconclusive; [ ] = dose if it differs, or a comment.

Each structure is followed by: Env fusion inh	UUG fidelity
[1] CNC[C@H]1OCCCC[C@@H](C)Oc2ccc(NC(=O)Nc3cccc4ccccc34)cc2C(=O)N([C@@H](C)CO)C[C@H]1C
    -34[16.7 µM]	15
[2] COCC#Cc1ccc2c(c1)O[C@H](CN(C)C(=O)C1CCOCC1)[C@H](C)CN([C@H](C)CO)S2(=O)=O
    -5[16.7 µM]	15
[3] C[C@@H]1CN([C@H](C)CO)C(=O)c2cc(NC(=O)Nc3ccc(F)cc3)ccc2O[C@H]1CN(C)CC1CCCCC1
    19[16.7 µM]	-8
[4] Cc1noc(C)c1S(=O)(=O)Nc1ccc2c(c1)C(=O)N([C@H](C)CO)C[C@H](C)[C@@H](CN(C)C(=O)C1CCCCC1)OCCCC[C@@H](C)O2
    -24[16.7 µM]	-7
[5] C[C@H](CO)N1C[C@H](C)[C@H](CN(C)S(=O)(=O)c2ccccc2)Oc2ncc(C#CC3(O)CCCC3)cc2C1=O
    -41[16.7 µM]	-9
[6] CCC(=O)N(C)C[C@H]1Oc2cc(C#CCC3CCCC3)ccc2S(=O)(=O)N([C@H](C)CO)C[C@@H]1C
    -12[16.7 µM]	2
[7] C[C@@H]1CN([C@@H](C)CO)C(=O)Cc2cc(NC(=O)Nc3ccccc3)ccc2O[C@@H]1CN(C)S(=O)(=O)c1ccccc1
    -2[16.7 µM]	-13
[8] C[C@H](CO)N1C[C@H](C)[C@@H](CN(C)Cc2ccc(-c3ccccc3)cc2)Oc2ncc(-c3cccnc3)cc2C1=O
    -3[16.7 µM]	7
[9] COc1ccc(NC(=O)Nc2ccc3c(c2)C(=O)N([C@H](C)CO)C[C@@H](C)[C@@H](CN(C)S(=O)(=O)c2ccc(C)cc2)O3)cc1
    -16[16.7 µM]	5
[10] CO[C@H]1CN(C)C(=O)c2cc(NC(C)=O)ccc2OC[C@@H](C)N(C(=O)c2ccccn2)C[C@@H]1C
    -4[16.7 µM]	0
[11] COc1ccc(NC(=O)N(C)C[C@H]2Oc3ccc(NC(=O)Cn4cnnn4)cc3CC(=O)N([C@@H](C)CO)C[C@H]2C)cc1
    -22[16.7 µM]	31
[12] C[C@@H](NC(=O)C[C@H]1C[C@H]2c3cc(NS(C)(=O)=O)ccc3O[C@H]2[C@H](CO)O1)c1ccccc1
    7[16.7 µM]	4
[13] C[C@H]1CN([C@@H](C)CO)C(=O)c2cc(NC(=O)Cc3cn(C)c4ccccc34)ccc2O[C@H]1CN(C)S(=O)(=O)c1ccc(Cl)cc1
    9[16.7 µM]	10
[14] C[C@@H]1CN([C@@H](C)CO)S(=O)(=O)c2ccc(C3=CCCC3)cc2O[C@H]1CN(C)S(=O)(=O)c1cn(C)cn1
    0[16.7 µM]	-7
[15] Cc1noc(C)c1S(=O)(=O)N(C)C[C@H]1OCCCC[C@@H](C)Oc2ccc(NC(=O)NC3CCCCC3)cc2C(=O)N([C@@H](C)CO)C[C@H]1C
    -21[16.7 µM]	6
[16] C[C@@H]1CN([C@@H](C)CO)C(=O)c2cc(NS(C)(=O)=O)ccc2O[C@@H](C)CCCCO[C@@H]1CN(C)Cc1ccc2c(c1)OCO2
    -30[16.7 µM]	1
[17] CCCN(C)C[C@H]1Oc2ncc(C#CCN(C)C)cc2C(=O)N([C@@H](C)CO)C[C@H]1C
    13[16.7 µM]	-3
[18] CO[C@H]1CN(C)C(=O)c2ccc(NC(=O)Nc3ccc(Cl)cc3)cc2OC[C@H](C)N(C)C[C@H]1C
    11[16.7 µM]	-7
[19] CNC[C@H]1Oc2cc(-c3cccnc3)ccc2S(=O)(=O)N([C@H](C)CO)C[C@@H]1C
    -21[16.7 µM]	-3
[20] Cc1ccc(S(=O)(=O)N[C@@H]2CC[C@@H](CC(=O)NC3CCCCC3)O[C@H]2CO)cc1
    3[16.7 µM]	22
[21] C[C@@H]1CN([C@H](C)CO)C(=O)c2cc(-c3ccccc3)cnc2O[C@H]1CN(C)C(=O)Cc1cccnc1
    -7[16.7 µM]	-15
[22] C[C@H]1CCCCO[C@@H](CN(C)C(=O)c2ccncc2)[C@@H](C)CN([C@@H](C)CO)C(=O)c2cc(NS(=O)(=O)c3ccc(Cl)cc3)ccc2O1
    8[16.7 µM]	6
[23] Cc1noc(C)c1S(=O)(=O)Nc1ccc2c(c1)C(=O)N([C@H](C)CO)C[C@H](C)[C@@H](CN(C)C(=O)c1ccncc1)OCCCC[C@H](C)O2
    -12[16.7 µM]	5
[24] COc1ccccc1-c1ccc2c(c1)O[C@H](CN(C)S(=O)(=O)c1ccccc1)[C@@H](C)CN([C@@H](C)CO)S2(=O)=O
    -5[16.7 µM]	-10
[25] CN(C)CCCNC(=O)C[C@@H]1CC[C@@H](NC(=O)Cc2cccnc2)[C@@H](CO)O1
    ?	-18
[26] O=C(C[C@H]1CC[C@@H](NC(=O)C2CC2)[C@@H](CO)O1)Nc1nccs1
    10[16.7 µM]	-11
[27] CC(C)C[C@@H]1NC(=O)[C@@H]2C[C@H](C(=O)NCCCCCCN(C)C)[C@H](c3ccc(O)cc3)N2C1=O
    -7[16.7 µM]	6
[28] C[C@H]1CCCCO[C@H](CN(C)C(=O)CCCN(C)C)[C@@H](C)CN([C@@H](C)CO)C(=O)c2cc(NC(=O)NC3CCCCC3)ccc2O1
    -10[16.7 µM]	31
[29] Cc1noc(C)c1NC(=O)N(C)C[C@H]1OCCCC[C@H](C)Oc2ccc(NS(=O)(=O)c3cccs3)cc2C(=O)N([C@@H](C)CO)C[C@@H]1C
    0[16.7 µM]	1
[30] COc1cccc(S(=O)(=O)N[C@@H]2CC[C@H](CC(=O)NCc3ccncc3)O[C@@H]2CO)c1
    56*[16.7 µM]	-16
[31] C[C@H]1CN([C@@H](C)CO)C(=O)c2cc(NC(=O)Nc3ccccc3)ccc2O[C@@H]1CN(C)S(=O)(=O)c1cccs1
    4[16.7 µM]	-3
[32] C[C@@H]1CN([C@H](C)CO)C(=O)Cc2cc(NS(C)(=O)=O)ccc2O[C@@H]1CN(C)S(=O)(=O)c1ccc(F)cc1
    -9[16.7 µM]	-17
[33] O=C(Nc1ccc(F)cc1)Nc1ccc2c(c1)[C@H]1C[C@H](CC(=O)N3CCOCC3)O[C@H](CO)[C@H]1O2
    -17[16.7 µM]	3
[34] C[C@@H]1CN([C@@H](C)CO)C(=O)Cc2cc(NS(=O)(=O)c3ccccc3)ccc2O[C@@H]1CN(C)S(C)(=O)=O
    -30[16.7 µM]	-4
[35] C[C@H](CO)N1C[C@H](C)[C@@H](CN(C)C(=O)Cc2cccnc2)Oc2ncc(C3=CCCCC3)cc2C1=O
    6[16.7 µM]	16
[36] C[C@H]1CN([C@@H](C)CO)S(=O)(=O)c2ccc(-c3cncnc3)cc2O[C@@H]1CN(C)C(=O)C1CC1
    -9[16.7 µM]	1
[37] C[C@@H]1CN([C@@H](C)CO)C(=O)Cc2cc(NS(=O)(=O)c3ccc(Cl)cc3)ccc2O[C@H]1CN(C)S(=O)(=O)c1ccccc1
    -3[16.7 µM]	-5
[38] C[C@H]1CCCCO[C@H](CN(C)Cc2ccncc2)[C@@H](C)CN([C@@H](C)CO)C(=O)c2cc(NS(=O)(=O)c3ccc(F)cc3)ccc2O1
    -21[16.7 µM]	4
[39] COc1ccccc1C#Cc1cnc2c(c1)C(=O)N([C@H](C)CO)C[C@@H](C)[C@@H](CN(C)C(C)=O)O2
    -4[16.7 µM]	-5
[40] Cc1noc(C)c1NC(=O)N(C)C[C@@H]1OCCCC[C@H](C)Oc2ccc(NS(=O)(=O)c3ccc(Cl)cc3)cc2C(=O)N([C@@H](C)CO)C[C@H]1C
    -228[16.7 µM]	8
[41] C[C@H](NC(=O)C[C@@H]1C[C@H]2c3cc(NC(=O)NC4CCCC4)ccc3O[C@H]2[C@H](CO)O1)c1ccccc1
    21[16.7 µM]	5
[42] C[C@H]1CN([C@@H](C)CO)C(=O)c2cc(NC(=O)Cn3cnnn3)ccc2O[C@H]1CN(C)CC1CCCCC1
    -7[16.7 µM]	0
[43] O=C(NCC[C@H]1CC[C@H](NC(=O)C2CCCCC2)[C@H](CO)O1)c1cnccn1
    16[16.7 µM]	158*
[44] CCC(=O)N[C@@H]1CC[C@@H](CC(=O)NCc2cc(F)cc(F)c2)O[C@H]1CO
    2[16.7 µM]	-5
[45] C[C@H]1CCCCO[C@H](CN(C)Cc2ccc(C(=O)O)cc2)[C@@H](C)CN([C@@H](C)CO)C(=O)c2cc(NC(=O)CCC(F)(F)F)ccc2O1
    -2[16.7 µM]	5
[46] CCCC(=O)Nc1ccc2c(c1)C(=O)N(C)C[C@@H](OC)[C@@H](C)CN[C@H](C)CO2
    -6[16.7 µM]	-12
[47] C[C@@H]1CCCCO[C@@H](CN(C)C(=O)Nc2ccc3c(c2)OCO3)[C@H](C)CN([C@H](C)CO)C(=O)c2cc(NS(C)(=O)=O)ccc2O1
    -19[16.7 µM]	3
[48] CC(C)C(=O)Nc1ccc2c(c1)C(=O)N(C)[C@H]1CC[C@H](CC(=O)Nc3ccccc3)O[C@H]1CO2
    -6[16.7 µM]	23
[49] C[C@@H]1CCCCO[C@H](CN(C)C(=O)CCC(F)(F)F)[C@H](C)CN([C@H](C)CO)C(=O)c2cc(N(C)C)ccc2O1
    7[16.7 µM]	24
[50] C[C@@H]1CCCCO[C@@H](CN(C)C(=O)Nc2ccccc2)[C@@H](C)CN([C@H](C)CO)C(=O)c2cc(NC(=O)NC3CCCCC3)ccc2O1
    8[16.7 µM]	-10
[51] C[C@H](CO)N1C[C@H](C)[C@H](CN(C)C(=O)CN(C)C)Oc2ncc(-c3ccc(C(=O)N(C)C)cc3)cc2C1=O
    -14[16.7 µM]	-5
[52] COc1ccc(S(=O)(=O)Nc2cccc3c2O[C@@H](CN(C)C(=O)Nc2ccc4c(c2)OCO4)[C@H](C)CN([C@@H](C)CO)C3=O)cc1
    -6[16.7 µM]	-3
[53] C[C@@H]1CN([C@H](C)CO)C(=O)c2cc(NC(=O)Cc3ccccc3)ccc2O[C@@H]1CN(C)CC1CCCCC1
    -1[16.7 µM]	-11
[54] N#C[C@H]1N[C@H](CO)[C@@H]1c1ccc(C2=CCCC2)cc1
    -3[16.7 µM]	-15
[55] C[C@@H]1CN([C@@H](C)CO)C(=O)c2cc(NC(=O)Nc3cccc4ccccc34)ccc2O[C@@H](C)CCCCO[C@H]1CN(C)C(=O)CCCN(C)C
    -43[16.7 µM]	16
[56] COCC(=O)N1[C@@H](C#N)[C@@H](c2ccc(C#Cc3ccccc3F)cc2)[C@@H]1CO
    20[16.7 µM]	25
[57] Cc1cccc(S(=O)(=O)N[C@H]2CC[C@@H](CCn3cc(-c4ccccn4)nn3)O[C@H]2CO)c1
    28[16.7 µM]	-1
[58] C[C@@H]1CCCCO[C@H](CN(C)Cc2ccc(C(=O)O)cc2)[C@@H](C)CN([C@H](C)CO)C(=O)c2cc(NC(=O)Nc3ccc(C(F)(F)F)cc3)ccc2O1
    9[16.7 µM]	-5
[59] C[C@@H]1CN([C@H](C)CO)C(=O)c2cccc(NC(=O)Nc3ccccc3)c2O[C@@H]1CN(C)Cc1ccc(Oc2ccccc2)cc1
    -53[16.7 µM]	-1
[60] C[C@H](CO)N1C[C@H](C)[C@@H](CN(C)Cc2ccc(C(F)(F)F)cc2)OCCCC[C@H](C)Oc2ccc(NC(=O)Nc3ccc4c(c3)OCO4)cc2C1=O
    71*[16.7 µM]	35

Values by screen from the list.
Env fusion inh, compounds 47–50 → -19[16.7 µM], -6[16.7 µM], 7[16.7 µM], 8[16.7 µM]
UUG fidelity, compounds 47–50 → 3, 23, 24, -10

Three compounds already listed, arranged by the number in UUG fidelity, low to high:
Each structure is followed by: Env fusion inh	UUG fidelity
[44] CCC(=O)N[C@@H]1CC[C@@H](CC(=O)NCc2cc(F)cc(F)c2)O[C@H]1CO
    2[16.7 µM]	-5
[12] C[C@@H](NC(=O)C[C@H]1C[C@H]2c3cc(NS(C)(=O)=O)ccc3O[C@H]2[C@H](CO)O1)c1ccccc1
    7[16.7 µM]	4
[48] CC(C)C(=O)Nc1ccc2c(c1)C(=O)N(C)[C@H]1CC[C@H](CC(=O)Nc3ccccc3)O[C@H]1CO2
    -6[16.7 µM]	23

Complete entries from above.
Shown for COCC(=O)N1[C@@H](C#N)[C@@H](c2ccc(C#Cc3ccccc3F)cc2)[C@@H]1CO = Env fusion inh: 20[16.7 µM]; UUG fidelity: 25
Shown for C[C@@H]1CN([C@H](C)CO)C(=O)c2cc(NC(=O)Cc3ccccc3)ccc2O[C@@H]1CN(C)CC1CCCCC1 = Env fusion inh: -1[16.7 µM]; UUG fidelity: -11

(next part)
Each structure is followed by: Env fusion inh	UUG fidelity
[61] C[C@@H]1CN([C@H](C)CO)C(=O)Cc2cc(NS(=O)(=O)c3cccs3)ccc2O[C@H]1CN(C)S(=O)(=O)c1ccccc1
    2[16.7 µM]	2
[62] C[C@@H]1CN([C@@H](C)CO)C(=O)c2cc(NS(=O)(=O)c3ccc(Cl)cc3)ccc2O[C@@H](C)CCCCO[C@@H]1CN(C)Cc1ccc2c(c1)OCO2
    -193[16.7 µM]	9
[63] CC(C)C#Cc1cnc2c(c1)C(=O)N([C@H](C)CO)C[C@H](C)[C@H](CN(C)C(=O)c1ccccc1F)O2
    -16[16.7 µM]	-2
[64] Cc1noc(C)c1NC(=O)Nc1ccc2c(c1)C(=O)N([C@H](C)CO)C[C@H](C)[C@@H](CN(C)C(=O)Nc1c(C)noc1C)OCCCC[C@@H](C)O2
    -10[16.7 µM]	-12
[65] C[C@H](NC(=O)C[C@@H]1CC[C@@H](NC(=O)Cc2ccccn2)[C@H](CO)O1)c1ccccc1
    -17[16.7 µM]	-14
[66] C[C@H]1CN([C@@H](C)CO)C(=O)c2cc(NS(=O)(=O)c3ccccc3)ccc2O[C@@H]1CN(C)CC1CCCCC1
    1[16.7 µM]	-3
[67] O=C(N[C@@H]1CC[C@H](CCNS(=O)(=O)c2ccc(F)cc2)O[C@@H]1CO)c1cccc(F)c1
    14[16.7 µM]	2
[68] O=C1CSC2=NC3(CO)Oc4ccccc4[C@H]([C@H]3CO)N12
    -16[16.7 µM]	-20

These rows are one share of the data, so the mix of outcomes need not match the whole.
